# Assay outcomes deposited in PubChem by Broad Institute.
# FGF22 binding: shifts melting point of recombinant human FGF22; hit rate 1.5% among 340,000; calls only at 9.99 µM; Q9HCT0; recombinant FGF22 thermal shift, SYPRO orange fluorescence; percent of sucrose octasulfate shift, DMSO zero;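 active = melting point raised past a set limit in the mean and every replicate; three in four hits are not shown here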
# Target sequence (Q9HCT0 whole entry, looked up): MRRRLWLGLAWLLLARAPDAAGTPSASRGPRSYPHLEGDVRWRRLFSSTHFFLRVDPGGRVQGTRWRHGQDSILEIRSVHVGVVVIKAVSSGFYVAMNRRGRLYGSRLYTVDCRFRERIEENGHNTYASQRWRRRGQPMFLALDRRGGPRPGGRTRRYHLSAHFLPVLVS
# Ecoli rRNA inh: inhibits bacterial ribosomal RNA function over humanized ribosomes | hit rate 1.6% among 350,000 | E. coli WT GFP vs humanized-ribosome RFP mutants, fluorescence, 24 h; hits give low values; DMSO median 0, no signal -100 | AID 720706 | GFP signal change (wild-type ribosome), % (no concentration beside the values);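 active = significant combined selectivity score with lowered wild-type GFP, culture density cut under 30%, mutant RFP and density less affected; inactive = any of these conditions unmet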; note: one replicate is shown; some compounds called inactive have numbers as strong as hits
# MLL AF4-AF9 inh: blocks AF4 peptide binding to human AF9. AlphaScreen, biotin-AF4 peptide binding to FLAG-AF9. inhibition, % at 10 µM. hit rate 0.47% among 350,000. AID 651704;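 active = every replicate reaching a set inhibition limit, whatever the replicate mean, cut at about 25% in these data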;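 note: 0% = plate neutral control median and 100% = total signal loss; the record names both 10 and 1 µM as test concentration; the first replicate is given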
# Target sequence (P42568 whole entry, looked up): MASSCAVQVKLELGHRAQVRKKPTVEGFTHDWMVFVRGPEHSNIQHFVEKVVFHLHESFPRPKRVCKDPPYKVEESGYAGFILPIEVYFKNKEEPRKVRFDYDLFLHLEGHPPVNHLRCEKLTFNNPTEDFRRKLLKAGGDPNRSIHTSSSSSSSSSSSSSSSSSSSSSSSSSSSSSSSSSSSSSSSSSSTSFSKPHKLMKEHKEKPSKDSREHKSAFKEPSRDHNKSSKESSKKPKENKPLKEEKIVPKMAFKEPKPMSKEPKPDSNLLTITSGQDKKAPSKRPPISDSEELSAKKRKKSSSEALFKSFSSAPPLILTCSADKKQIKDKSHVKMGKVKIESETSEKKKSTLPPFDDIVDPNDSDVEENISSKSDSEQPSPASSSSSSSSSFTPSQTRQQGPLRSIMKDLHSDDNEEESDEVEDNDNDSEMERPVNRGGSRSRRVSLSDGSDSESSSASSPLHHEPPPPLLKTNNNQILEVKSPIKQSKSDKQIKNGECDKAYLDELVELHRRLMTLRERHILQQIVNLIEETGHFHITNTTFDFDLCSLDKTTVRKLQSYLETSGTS
# Ecoli rRNA inh OD600: second read-out of Ecoli rRNA inh, no call of its own (marks repeat the call); OD600 change, %; measured here: OD600 growth;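 optical density of the mix in the first replicate; 0 = DMSO median and -100 = no signal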
# Ecoli rRNA inh RFP: also measured in Ecoli rRNA inh; calls as there; RFP signal change, %; measured here: RFP humanized mutant strains;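 first replicate; 0 = DMSO median and -100 = no signal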
# The depositor's hits bear a star; i = inactive; . = no result given; + = active, no number; & = joins results of further samples. An excerpt; the hit share may differ from the screen's.
SMILES,FGF22 binding,Ecoli rRNA inh,Ecoli rRNA inh OD600,Ecoli rRNA inh RFP,MLL AF4-AF9 inh
Cc1noc(C)c1S(=O)(=O)N(C)C[C@H]1Oc2c(NS(=O)(=O)c3cn(C)cn3)cccc2C(=O)N([C@@H](C)CO)C[C@H]1C,i,2,7,-1.6,-2.8
C[C@H](CO)N1C[C@H](C)[C@H](CN(C)C(=O)Nc2ccc3c(c2)OCO3)Oc2ccc(NC(=O)NC3CCCCC3)cc2CC1=O,i,1,-1,-1.6,1.0
Cc1cccc(C)c1NC(=O)C1(C)CSCC(=O)N1CCc1ccccc1F (stereo not given),i,-6,-3,3.4,-0.6
C[C@H](NC(=O)C[C@H]1C[C@H]2c3cc(NC(=O)C4CCOCC4)ccc3O[C@H]2[C@@H](CO)O1)c1ccccc1,i,3,3,-2.5,-0.8
C[C@H](O)C#Cc1cnc2c(c1)C(=O)N([C@H](C)CO)C[C@@H](C)[C@H](CN(C)C(=O)CC1CC1)O2,i,-4,-9,-1.6,-0.5
COCC(=O)N(C)C[C@@H]1Oc2cc(C#CCC(C)C)ccc2S(=O)(=O)N([C@H](C)CO)C[C@H]1C,i,-3,-8,-1.3,3.4
CCNC(=O)OC[C@H]1O[C@H](C#Cc2ccc(C(C)(C)C)cc2)C=C[C@H]1O,.,11,-10,6.1,-1.9
O=C(O)C[C@@H]1C[C@@H]2c3cc(NC(=O)Nc4ccccc4)ccc3O[C@@H]2[C@H](CO)O1,i,3,8,-1.9,-6.8
CN(C)CC#Cc1ccc([C@H]2[C@@H](CO)N3CCCCN(CC4CCOCC4)C[C@@H]23)cc1,i,5,19,-1.0,-0.7
CCC(=O)N(C)C[C@@H]1Oc2ncc(C#CCc3ccccc3)cc2C(=O)N([C@@H](C)CO)C[C@@H]1C,i,6,6,-0.7,-2.5
COc1cccc(-n2c(SCC(=O)NC3CCS(=O)(=O)C3)nc3ccccc3c2=O)c1 (stereo not given),i,8,6,-0.5,-1.8
CN(CC(=O)NCc1cccs1)CC(=O)Nc1ccccc1Cl,i,2,8,-2.5,-1.3
C[C@@H]1CN([C@@H](C)CO)C(=O)Cc2cc(NC(=O)CCCCCC(=O)Nc3ccccc3N)ccc2O[C@H]1CN(C)S(=O)(=O)c1cn(C)cn1,i,7,8,-1.0,-1.1
Cc1ccc(S(=O)(=O)N2C[C@H](O)COC[C@H]3O[C@@H](CC(=O)NCC4CCCCC4)CC[C@@H]32)cc1,i,-2,-16,-1.1,3.3
C[C@H](CO)N1C[C@H](C)[C@@H](CN(C)S(=O)(=O)c2ccccc2F)OCc2cnnn2CCCC1=O,i,9&1,14&1,-3.3&0.0,-0.7&0.5
COCC(=O)Nc1ccc2c(c1)C(=O)N(C)C[C@@H](OC)[C@@H](C)CN(Cc1cc(F)ccc1F)[C@@H](C)CO2,i,-3,0,-3.1,5.8
CC(C)NC(=O)Nc1ccc2c(c1)C(=O)N([C@@H](C)CO)C[C@@H](C)[C@H](CN(C)CC1CCCCC1)O2,i,5,5,-1.7,-1.0
C[C@H]1CN([C@@H](C)CO)C(=O)c2cc(-c3cccnc3)cnc2O[C@H]1CN(C)C(=O)c1ccccc1F,i,5,9,-4.0,-0.4
Cc1noc(C)c1S(=O)(=O)Nc1ccc2c(c1)C(=O)N([C@H](C)CO)C[C@H](C)[C@@H](CN(C)C(=O)NC(C)C)OCCCC[C@H](C)O2,i,1,8,2.0,4.0
CCCNC(=O)N[C@@H]1CC[C@H](CCNS(=O)(=O)c2cccc(F)c2)O[C@H]1CO,i,2,-2,0.5,-0.7
C[C@@H]1CCCCO[C@H](CN(C)Cc2ccccc2)[C@H](C)CN([C@@H](C)CO)C(=O)c2cc(NC(=O)Cc3ccccc3)ccc2O1,i,2,-1,0.6,4.5
CC1C=NC(S(=O)(=O)N2CC[C@H]3[C@@H](CO)N(C)c4ccc(-c5ccccc5F)cc4[C@H]32)=N1 (stereo not given in full),i,-17,-35,26,7.1
O=C(C1CC1)N1CCCCN2[C@@H](CO)[C@H](c3ccc(-c4cccc(F)c4)cc3)[C@@H]2C1,i,0,-3,-0.1,4.0
C[C@H](CO)N1C[C@H](C)[C@@H](CN(C)C(=O)c2ccc(F)cc2)Oc2ncc(Br)cc2C1=O,i,8,5,-3.1,-0.9
Cc1noc(C)c1NC(=O)N1C[C@@H](O)COC[C@H]2O[C@@H](CC(=O)NCC3CC3)CC[C@@H]21,i,0,-9,3.5,-0.4
CCOC(=O)C1=CCN(S(=O)(=O)c2ccc(Cl)cc2)C1c1cccc(F)c1 (stereo not given),i,-10,-43,-8.6,-2.2
C[C@@H]1CN([C@H](C)CO)C(=O)c2cccc(NS(=O)(=O)c3ccccc3)c2O[C@@H]1CN(C)Cc1ccc(-c2ccccc2)cc1,i,-1,3,1.7,-1.6
COc1ccc(S(=O)(=O)N[C@H]2CC[C@@H](CC(=O)O)O[C@H]2CO)cc1,i,0,2,2.2,-0.2
O=C(C[C@H]1CC[C@H]2[C@@H](COC[C@H](O)CN2Cc2nccs2)O1)NCc1ccccc1,i,-2,1,-0.4,-0.3
CNC[C@@H]1Oc2ccc(NC(=O)CCC(F)(F)F)cc2CC(=O)N([C@@H](C)CO)C[C@H]1C,i,-2,-12,1.3,-6.8

# Structures listed so far that contain a COOH group (2):
SMILES,FGF22 binding,Ecoli rRNA inh,Ecoli rRNA inh OD600,Ecoli rRNA inh RFP,MLL AF4-AF9 inh
O=C(O)C[C@@H]1C[C@@H]2c3cc(NC(=O)Nc4ccccc4)ccc3O[C@@H]2[C@H](CO)O1,i,3,8,-1.9,-6.8
COc1ccc(S(=O)(=O)N[C@H]2CC[C@@H](CC(=O)O)O[C@H]2CO)cc1,i,0,2,2.2,-0.2

# (more compounds)
SMILES,FGF22 binding,Ecoli rRNA inh,Ecoli rRNA inh OD600,Ecoli rRNA inh RFP,MLL AF4-AF9 inh
COc1ccc(S(=O)(=O)Nc2ccc3c(c2)C(=O)N([C@H](C)CO)C[C@H](C)[C@@H](CN(C)C(=O)NC(C)C)OCCCC[C@H](C)O3)cc1,i,1,-7,1.4,-0.3
COc1ccccc1-c1cnc2c(c1)C(=O)N([C@H](C)CO)C[C@@H](C)[C@@H](CN(C)C(=O)c1ccccc1)O2,i,1,1,-3.5,-1.5
O=C(Nc1cccc(Cl)c1)N1C[C@@H]2[C@H](c3ccccc31)[C@H](CO)N2C(=O)C1CC1,i,-56,-76,-10,-20
C[C@H]1CN([C@@H](C)CO)C(=O)Cc2cc(NC(=O)Nc3ccc(F)cc3)ccc2O[C@@H]1CN(C)Cc1ccc2c(c1)OCO2,i,-32,-54,18,-0.5
C[C@@H]1CCCCO[C@H](CN(C)C(=O)CCCN(C)C)[C@@H](C)CN([C@H](C)CO)C(=O)c2cc(NS(C)(=O)=O)ccc2O1,i,9,10,-2.2,-0.3
O=C(N[C@@H]1C=C[C@@H](CC(=O)N2CCCCC2)O[C@@H]1CO)c1cccc(F)c1,+,3,5,-4.0,-17
COc1cccc(NC(=O)CN(C)C(=O)c2cccc(S(=O)(=O)N3c4ccccc4CC3C)c2)c1 (stereo not given),i,0,-15,-2.6,1.7
CCN(CC)S(=O)(=O)c1cccc(C(=O)NC(C(=O)NNC(=O)c2ccccc2F)C(C)C)c1 (stereo not given),i,8,8,4.1,-2.3
C[C@H](CO)N1C[C@H](C)[C@H](CN(C)Cc2ccccc2)Oc2ccc(NC(=O)NC3CCCCC3)cc2CC1=O,i,0,-9,1.6,-0.2
COc1ccc(NC(=O)Nc2ccc3c(c2)[C@H]2C[C@@H](CC(=O)N4CCCCC4)O[C@@H](CO)[C@H]2O3)cc1,i,-5,5,-1.1,0.3
Cc1cc(C)c(C#N)c(Sc2nc(C)c([N+](=O)[O-])c(C)c2C#N)n1,i,9,7,2.4,2.6
CNC[C@@H]1OCCCC[C@H](C)Oc2ccc(NC(=O)c3ccncc3)cc2C(=O)N([C@@H](C)CO)C[C@@H]1C,i,1,-6,-5.5,-11
N#C[C@@H]1[C@@H](c2ccc(C#Cc3cccnc3)cc2)[C@@H](CO)N1C(=O)C1CCCCC1,i,1,-2,2.1,-1.1
C[C@H]1CN([C@@H](C)CO)S(=O)(=O)c2ccc(C#CC3CC3)cc2O[C@@H]1CN(C)S(C)(=O)=O,i,-15&-7,-7&-6,5.2&0.3,-2.9&2.0&1.7
C[C@H]1CN([C@@H](C)CO)S(=O)(=O)c2ccc(-c3cccc(C#N)c3)cc2O[C@@H]1CN(C)C(=O)Nc1cc(F)ccc1F,i,-6,-13,8.9,-0.2
CCc1nc2c(OCC(=O)c3ccc(Cl)cc3Cl)cccn2c1N(C)C(=O)c1cccs1,i,-10,-24,-2.8,2.0
O=C(C[C@H]1CC[C@@H]2[C@H](COC[C@H](O)CN2Cc2cc(F)cc(F)c2)O1)NC1CCC1,i,0,-2,-0.3,-0.7
C[C@H]1CN([C@@H](C)CO)C(=O)c2cccc(NC(=O)Nc3cccc4ccccc34)c2O[C@H]1CN(C)S(=O)(=O)c1ccc(F)cc1,i,-2,-11,0.4,2.0
C[C@@H]1CN([C@@H](C)CO)C(=O)c2cc(NC(=O)Nc3ccc(F)cc3)ccc2O[C@@H](C)CCCCO[C@H]1CN(C)CC1CCCCC1,i,-26,-46,25,-5.5
Cc1ccc(S(=O)(=O)Nc2ccc3c(c2)C(=O)N([C@H](C)CO)C[C@H](C)[C@H](CN(C)Cc2ccc(C(=O)O)cc2)O3)cc1,i,3,1,-1.4,-1.0

# Among those listed so far, these have a Cl atom.
SMILES,FGF22 binding,Ecoli rRNA inh,Ecoli rRNA inh OD600,Ecoli rRNA inh RFP,MLL AF4-AF9 inh
CN(CC(=O)NCc1cccs1)CC(=O)Nc1ccccc1Cl,i,2,8,-2.5,-1.3
CCOC(=O)C1=CCN(S(=O)(=O)c2ccc(Cl)cc2)C1c1cccc(F)c1 (stereo not given),i,-10,-43,-8.6,-2.2
O=C(Nc1cccc(Cl)c1)N1C[C@@H]2[C@H](c3ccccc31)[C@H](CO)N2C(=O)C1CC1,i,-56,-76,-10,-20
CCc1nc2c(OCC(=O)c3ccc(Cl)cc3Cl)cccn2c1N(C)C(=O)c1cccs1,i,-10,-24,-2.8,2.0

# (further entries)
SMILES,FGF22 binding,Ecoli rRNA inh,Ecoli rRNA inh OD600,Ecoli rRNA inh RFP,MLL AF4-AF9 inh
C[C@@H]1CN([C@H](C)CO)C(=O)c2cc(C3=CCCC3)cnc2O[C@H]1CN(C)C(=O)NC1CCCC1,i,-6,-5,-0.1,-18
CO[C@H]1CN(C)C(=O)c2cc(NC(=O)c3ccc4c(c3)OCO4)ccc2OC[C@@H](C)N(CCC(F)(F)F)C[C@H]1C,i,-3,-5,0.5,0.5
C[C@H](CO)N1C[C@H](C)[C@H](CN(C)S(=O)(=O)c2ccccc2)Oc2ccc(NC(=O)Cc3cn(C)c4ccccc34)cc2C1=O,i,0,4,-1.6,2.6
C[C@H]1CN([C@@H](C)CO)C(=O)c2cc(NC(=O)NC3CCCCC3)ccc2O[C@@H]1CN(C)S(C)(=O)=O,i,5,4,0.2,-2.5
C[C@@H]1CN([C@@H](C)CO)C(=O)c2cc(C#CCN(C)C)cnc2O[C@@H]1CN(C)Cc1cccc(C(=O)O)c1,i,2,3,-0.6,-2.4
CCCC#Cc1cnc2c(c1)C(=O)N([C@@H](C)CO)C[C@@H](C)[C@H](CN(C)C(=O)CCN1CCCCC1)O2,i,9,0,-0.1,1.6
CN1C(=O)c2cc(NC(=O)c3ccc4c(c3)OCO4)ccc2OC[C@@H]2O[C@H](CC(=O)O)CC[C@H]21,i,1,4,-2.0,-2.3
Cc1noc(C)c1S(=O)(=O)Nc1ccc2c(c1)C(=O)N([C@H](C)CO)C[C@@H](C)[C@H](CN(C)C(=O)Nc1cccc3ccccc13)O2,i,3,11,2.5,-2.2
Cc1cc(NC(=O)c2ccc(OCC3CCCO3)cc2)ccc1Br (stereo not given),i,-8,-2,-1.3,-3.0
C[C@H](CO)N1C[C@H](C)[C@@H](CN(C)Cc2cccnc2)OCc2cnnn2CCCC1=O,i,2&-1,6&-1,6.9&1.7,-3.5&-1.7
COCCNC(=O)[C@H]1[C@H](CO)[C@H]2Cn3c(ccc(-c4ccc(F)cc4)c3=O)[C@@H]1N2C(=O)NC(C)C,+,4,6,0.2,1.6
C[C@H]1CN([C@@H](C)CO)C(=O)CCCn2nncc2CO[C@H]1CN(C)C(=O)Nc1ccc(C(C)(C)C)cc1,i,0,-2,-1.6,1.4
Cn1cc(/C=C(\NC(=O)c2ccccc2)C(=O)NCCCn2ccnc2)c2ccccc21,i,4,7,-0.8,5.1
C[C@H](CO)N1C[C@H](C)[C@@H](CN(C)C)Oc2ccc(NC(=O)Nc3ccccc3)cc2CC1=O,i,7,17,-2.7,0.2
O=C(NCCc1ccccc1)[C@H]1[C@H](CO)[C@H]2Cn3c(ccc(-c4cccc(F)c4)c3=O)[C@@H]1N2,i,-2,10,-0.1,-0.9
CSCCC(C(=O)Nc1c(C)cccc1C)n1c(-c2ccc(-c3ccccc3)cc2)nc2ccccc21 (stereo not given),i,13,16,-3.3,-0.7
